From PubChem
Vaccinia mCherry: inhibitors of vaccinia virus infection (mCherry reporter signal); 310,000 compounds, 0.63% hits; Vaccinia virus mCherry reporter infection, fluorescence; about a quarter of the inactives have no number; Potency, µM (highest dose often 36.5 µM), inactives show at the highest dose activity change, negative = inhibition, most hits filed as inhibitors; AID 720579; active = well fitted inhibition curve with a large enough effect; inconclusive = small, poorly fitted or top-dose-only effect; inactive = no such curve, though single readings can be large or run the other way; tested in A549 cells; further: nearly all actives have a fitted effect of over 35% in size; inactives centre near -10
VACV Venus inh: inhibitors of vaccinia virus (Venus reporter); Vaccinia virus Venus reporter expression, fluorescence; 330,000 compounds, 0.46% hits; Potency, µM (highest dose often 36.5 µM), for inactives: at the highest dose activity change, negative = inhibition, usual class: inhibitors; active means well fitted inhibition curve with a large enough effect; inconclusive means small, poorly fitted or top-dose-only effect; inactive means no such curve, though single readings can be large or run the other way; tested in A549 cells; further: nearly all actives have a fitted effect of over 30% in size; inactives centre near -10
The depositor's hits bear a star; i = inactive; ? = inconclusive; . = not tested or not shown; & = joins results of further samples; [ ] = dose if it differs, or a comment. On the % scale 0 is the no-effect control and ±100 the full control effect; potency means the concentration at half of the fitted maximal effect.

SMILES	Vaccinia mCherry	VACV Venus inh
O=C(c1cc2ccccc2o1)N(Cc1ccco1)Cc1cccs1	-16.8%	-10.2%
CC(C)CN(CC(C)C)C(=O)C1C2c3ccccc3C(c3ccccc32)C1C(=O)O (centres undefined)	-6.1%	-26.7%
CCCCNC(=O)c1nn(C)c2c1CSc1ccccc1-2	-10.8%	-13.5%
CC(=O)Nc1ccc(N2C(=O)CC(Sc3nc4ccccc4s3)C2=O)cc1 (centres undefined)	i	-10.5%
Cc1ccc(S(=O)(=O)N2C[C@]3(O)C[C@@H]4C(=O)N(c5ccccc5)C(=O)[C@@H]4C[C@]3(OC(=O)Nc3cccs3)C2)cc1	i	-9.5%
O=C1NCCOC(=O)[C@@H](Cc2ccc(F)cc2)CC/C=C/C[C@H]1CC(=O)N(CCO)Cc1ccccc1	?	-29.8%
Cc1ccc(NC(=O)/C(=C\c2cccnc2)NC(=O)c2ccco2)cc1	-13.1%	-10.2%
COc1ccc(-n2cc(CNCc3cnc4ccccn34)c(-c3cccc(F)c3)n2)cc1	-25.8%	-15.9%
CCOC(=O)c1cn(Cc2ccc(Br)cc2)nn1	-9.9%	0.5%
COc1ccc(NC(=O)CN(C)C(=O)c2ccc(NC3CC3)c([N+](=O)[O-])c2)cc1	-5.4%	-3.7%
Cc1cc(C)n2nc(SCc3nnc(SCc4ccccc4C)s3)nc2n1	-17.1%	-19.2%
Cc1cc(NC(=O)c2cccn(Cc3cccc([N+](=O)[O-])c3)c2=O)no1	-14.5%	-10.3%
COc1ccc(COC(=O)C2=C(C)NC(=O)NC2c2ccccc2)cc1 (centres undefined)	-18.6%	-14.0%
CC(C)=CCC/C(C)=C/CNC(=O)C[C@H]1C[C@H](C(=O)N2CCOCC2)[C@@]2(C)c3[nH]c4cc(-c5ccco5)ccc4c3CCN2C1=O	?	11.2µM*
O=C(Cc1ccccc1)NCC(=O)N1CCN(c2ccccc2)CC1	-11.0%	-16.7%
O=C(NCC1CCCO1)C1CCCN1C(=O)Nc1ccc(Cl)cc1 (centres undefined)	i	-8.7%
CCCn1ccc2c(OCC(=O)NCc3ccc(C)cc3)cccc2c1=O	0.2%	-8.0%
CCCN(C(=O)COC(=O)c1cc(CC)c(C)s1)c1c(N)n(Cc2ccccc2)c(=O)[nH]c1=O	-10.8%	-13.0%
CC(=O)c1cccc(NC(=O)c2ccc(NS(C)(=O)=O)cc2)c1	.	?
CC([NH2+][O-])C(C)(C)NO (centres undefined)	-11.6%	5.6%

The final two entries of the section before come first, to join the parts.
SMILES	Vaccinia mCherry	VACV Venus inh
CC(=O)c1cccc(NC(=O)c2ccc(NS(C)(=O)=O)cc2)c1	.	?
CC([NH2+][O-])C(C)(C)NO (centres undefined)	-11.6%	5.6%
O=[N+]([O-])c1cccc(CN2CCCCCC2)c1	?	-4.7%
COc1ccc(NC(=O)CSc2nc3c(c(=O)[nH]2)CCC3)cc1OC	.	-17.9%
CC1(c2cccc3ccccc23)OC(=O)c2ccccc21 (centres undefined)	i	-5.4%
COC(=O)CCC(=O)Nc1ccc(C)cc1OC(=O)CCC(=O)OC	.	-0.2%
O=C(COC(=O)c1cnc(Cl)c(Cl)c1)NCc1ccco1	i	-0.8%
CCCCc1cn([C@@H](CCCCNC(=O)OC(C)(C)C)C(=O)N2CCN(C(=O)OC(C)(C)C)CC2)nn1	-9.4%	-16.8%
CCOc1cc(-c2cc(-c3ccccc3)nc(N)c2C#N)ccc1O	-27.0%	?
O=C(O)Cn1ncc2ccccc2c1=O	i	-9.9%
CCC(CC)NC(=O)Nc1ccccc1C(F)(F)F	-17.9%	-7.4%
O=C(NCc1cccnc1)c1cc(C2CCCN(C(=O)c3cccs3)C2)on1 (centres undefined)	i	-10.0%
COc1ccc(C(=O)C2CCN(CC(=O)Nc3ccc(OC)cc3OC)CC2)cc1	-20.5%	-24.2%
CCOc1ccc(CC2c3cc(OCC)c(OCC)cc3CCN2C(=O)CN2CCN(C)CC2)cc1OCC (centres undefined)	-10.8%	-15.0%
CCCC(=O)Nc1ccc(Cl)c(NC(=O)c2cccc(OC)c2)c1	-13.1%	-16.2%
O=C(N/N=C/c1ccc2c(c1)OCO2)c1cc(-c2ccc(F)cc2)nc2ccccc12	-13.3%	-29.3%
C=CCC(CC=C)(CNC(=O)C(=O)Nc1ccc(C(=O)OCC)cc1)c1ccccc1	i	-10.6%
CCCN=C1N(C)C[C@@H]2[C@@H]3C(=O)N(Cc4ccccc4)C(=O)[C@@H]3[C@](C)(C(=O)OC)N12	-9.4%	-6.3%
COc1ccc(C(C)NC(=O)C2CCCC2)cc1OC (centres undefined)	i	-10.5%
Cc1cccc(Nc2ccncc2S(N)(=O)=O)c1	-2.0%[7.34 µM]	6.1%[7.34 µM]
Cc1cccc(CC(=O)Nc2cccc(-c3cn4cccnc4n3)c2)c1	-23.2%	-11.6%
CC1CCN(CCCCOc2ccccc2[N+](=O)[O-])CC1	-21.1%	-11.8%

An excerpt of these results, field by field.
COc1ccc(C(C)NC(=O)C2CCCC2)cc1OC (centres undefined)
  Vaccinia mCherry: i
  VACV Venus inh: -10.5%
CCCN(C(=O)COC(=O)c1cc(CC)c(C)s1)c1c(N)n(Cc2ccccc2)c(=O)[nH]c1=O
  Vaccinia mCherry: -10.8%
  VACV Venus inh: -13.0%
C=CCC(CC=C)(CNC(=O)C(=O)Nc1ccc(C(=O)OCC)cc1)c1ccccc1
  Vaccinia mCherry: i
  VACV Venus inh: -10.6%

Next section.
SMILES	Vaccinia mCherry	VACV Venus inh
O=S(=O)(c1ccc(OC(F)(F)F)cc1)N1CCCC(N2CCOCC2)C1 (centres undefined)	-11.2%	-8.6%
CN(C(=O)COc1ccccc1)c1ccc([N+](=O)[O-])cc1	i	-9.8%
COC(=O)C1CC2=C(CCCC2=O)NC1=O (centres undefined)	i	-2.9%
Cc1cc(C)nc(SCC(=O)NNC(=O)c2cccs2)n1	-12.4%	?
Cc1cc(NC(=O)C(Cl)(Cl)Cl)no1	-10.4%	-5.2%
CCCOc1ccc(-c2nn(-c3ccccc3)cc2C2NC(=O)NC(C)=C2C(=O)OC)cc1C (centres undefined)	-8.5%	-21.8%
CCN(CC)S(=O)(=O)c1ccc(O)c(C(=O)OCC(=O)N2CCCC2)c1	8.2%	5.4%
CC(C)Cn1c(CN(C)Cc2ccccc2)nc2c1c(=O)n(C)c(=O)n2C	?	-10.9%
CC(OC(=O)c1cccc(S(=O)(=O)N2CCCCC2)c1)C(=O)NC1CCCCC1C (centres undefined)	-13.4%	-6.7%
CC1=C(C(=O)Nc2ccccc2)C(c2ccccc2)N2C(=O)CSC2=N1 (centres undefined)	-14.2%[1.46 µM]	-18.9%
O=C(C=C(C(=O)c1ccccc1)c1ccccc1)c1ccccc1	-21.7%	1.5%
Cc1ccc(C)c(NC(=O)C(=O)NCCCN2CCOCC2)c1	-13.7%&4.4%	-6.0%&0.2%
CCOC(=O)c1sc(NC(=O)c2ccccc2F)c(C(N)=O)c1C	-26.9%	-19.7%
Oc1cccc(CCc2ccccn2)c1	i	-3.6%
CCc1ccc(CN2CCc3nc(Nc4ccc5c(c4)OCCO5)ncc3C2)cc1	-12.9%	-16.6%
NC(=O)CC[C@H](NC(=O)[C@H](Cc1ccccc1)n1c(=O)[nH]c2ccccc2c1=O)C(=O)N1CCC[C@H]1C(=O)O	-8.1%	0.7%
CCN1C=C(C(=O)OC)C(c2cccc(OC)c2OC)C(C(=O)OC)=C1	i	-3.8%
CN(C)CCN1C(=O)C(O)=C(C(=O)c2cc3ccccc3o2)C1c1ccc(N(C)C)cc1 (centres undefined)	31.9%[activator]	11.4%
CC(=O)C1=C(O)C(=O)N(C2CCCCC2)C1c1ccccc1 (centres undefined)	.	-14.7%
O=C1CN(Cc2cc(=O)oc3cc4c(cc23)CCC4)CCN1	-11.8%	2.1%
Cc1ccccc1NC(=S)N(CCN(C)C)C(C)c1ccco1 (centres undefined)	-13.9%	-9.9%
CCOC(=O)c1c(-c2ccccc2)csc1NC(=O)COc1ccc2c(C)cc(=O)oc2c1	-11.3%	-4.5%
CC1CCCCC1NC(=O)C1CCN(S(=O)(=O)N2CCC3(CC2)OCCO3)CC1 (centres undefined)	i	-8.9%
C[C@@H]1CN(Cc2ccc3c(c2)CN(Cc2cccc4c2OCO4)CCO3)C[C@H](C)O1	-13.5%	-0.2%
COc1cc(CNc2ncnc3c2ncn3[C@H]2CN(Cc3cccc(C(F)(F)F)c3)C[C@@H](CO)O2)cc(OC)c1OC	-20.7%	-10.6%
N/C(=N/OS(=O)(=O)c1ccc([N+](=O)[O-])cc1)c1ccncc1	-3.8%	-11.2%
CCN(CC)c1ccc(C(=O)OCc2cc(=O)oc3cc(O)ccc23)cc1	?	-15.1%
COc1ccccc1N1C(=O)NC(=O)/C(=C\c2cnn(-c3ccccc3)c2)C1=O	0.5%	-0.2%
CCc1nnc(NC(=O)CSc2nnc(Cc3cccn3C)n2CCOC)s1	3.1%	9.5%
COC(=O)C1=C(Nc2cc(Cl)cc(Cl)c2)CSC1	i	-14.3%
O=C(CCN1C(=O)/C(=C/C=C/c2ccccc2)SC1=S)Nc1nc2ccccc2s1	i	-1.8%
COc1ccc(OC)c(NC(=O)CSc2nnc(-c3cccnc3)s2)c1	i	-12.4%
O=C(N/N=C1\NC(=O)C(CO)(CO)S1)c1ccccc1	-7.8%	-10.8%
C(=N\n1c2ccccc2c2ccccc21)/c1ccccc1	i	-7.3%
Cc1ccc2nc(-c3cccc(-c4cccc(Cl)c4)c3)c(NCc3ccccc3)n2c1	i	-24.0%
Oc1ccc(-c2cn3c(n2)SCC3)cc1O	-13.5%	-1.5%
CC(C)CNc1nc2c(c(=O)n(C)c(=O)n2C)n1Cc1cccc(Br)c1	.	-20.7%
CCOC(=O)C1=C[C@@H](CC)N(S(=O)(=O)c2ccc([N+](=O)[O-])cc2)[C@H]1c1ccccc1	i	-9.5%
C/C(Cl)=C\Cn1c(NCCCn2ccnc2)nc2c1c(=O)n(C)c(=O)n2C	.	-15.7%
Brc1ccccc1-n1ncc2c1ncn1nc(Cc3ccccc3)nc21	-10.4%	-12.7%
CC(C)C(NC(=O)C(C(C)C)N(C)C)C(=O)N(C)C(C(=O)N1CCCC1C(=O)N1CCCC1C(=O)NCc1ccccc1)C(C)C (centres undefined)	?	?
Cc1c(C(=O)N2CCCCC2)c(S(=O)(=O)Nc2cccc(Br)c2)c(C)n1C	-19.6%	-9.0%
CCOc1ccc(C=O)cc1CN1CCCCC1	4.8%	6.0%
CC(O)(c1cccnc1)c1nc(-c2cccc(F)c2)cs1 (centres undefined)	8.5%	-1.2%
O=c1c(Br)c(N2CCOCC2)cnn1-c1ccccc1	-22.9%	-5.0%
CN(CC(=O)NCCc1ccccc1)S(=O)(=O)c1cccs1	.	-10.5%
CCOC(=S)SCC(=O)N1CCc2cc(OC)c(OC)cc2C1C1C(=O)CC(C)(C)CC1=O (centres undefined)	-6.2%	-11.9%
CCN(c1cccc(C)c1)S(=O)(=O)c1nnc(NC(=O)C2CCCCC2)s1	-4.7%	-0.4%
O=[N+]([O-])c1cc(Cl)ccc1-c1nc(-c2ccncc2)no1	-12.7%	-3.9%
COc1ccc(-c2cn3nc(N4CCCC(C(=O)Nc5cccc(OC)c5)C4)sc3n2)cc1 (centres undefined)	-9.1%	-14.4%
Cc1noc(NS(=O)(=O)c2ccc(NC(=O)c3ccc(N4C(=O)c5ccccc5C4=O)cc3)cc2)c1C	i	-9.3%
O=[N+]([O-])c1ccc(NNC(=S)Nc2ccc(F)cc2)cc1	?	?
O=C(O)C1CSC2(c3ccc4c(c3)OCCO4)CCC(=O)N12 (centres undefined)	-12.8%	-9.4%
COc1ccc(C2(C(=O)Nc3ccc(C(=O)N4CCOCC4)cc3)CCOCC2)cc1	i	-11.3%
CCOC(=O)c1ccc(NC(=S)NCCc2ccc(F)cc2)cc1	11.0%	4.4%
COc1ccc(CNS(=O)(=O)CCNCCc2ccccc2)cc1	-11.4%	-1.8%
OCC[C@H]1C[C@H](O)[C@@H](O)[C@@]2(CCCc3ccccc3O2)O1	i	-3.5%
COc1ccc(/C=C(\C#N)C(=O)OC2CCOC2=O)cc1 (centres undefined)	5.6%	9.5%
O=C(COC(=O)C1=COCCO1)NCc1ccc(Cl)cc1Cl	-2.7%	-3.2%
O=C(CCNC(=O)c1ccccc1Cl)NN1C(=O)NC2(CCCCC2)C1=O	-2.2%	-17.7%
Later entries:
SMILES	Vaccinia mCherry	VACV Venus inh
CC(N)c1csc(Nc2ccc(C(=O)NCCCO)cn2)n1 (centres undefined)	5.2%	0.1%
O=C(CCNC(=O)c1ccccc1)Nc1cccnc1	-16.0%	-10.2%
CCOC(=O)C1CCCN(C(=O)c2cc(-c3ccc(F)cc3)nc3ccccc23)C1 (centres undefined)	-20.6%	-9.0%
CNc1csc(C)c(C)c1=O	i	-4.4%
CCC1CN(C(=O)N2CCC(C(=O)Nc3cc(C)ccc3C)CC2)c2ccccc2O1 (centres undefined)	-6.3%	-14.3%
CCOC(=O)c1cncc(C#CCO)c1	i[7.34 µM]	-3.5%[7.34 µM]
CC(=O)N1CCC(N(CCN2CCOCC2)C(=S)Nc2cccc(C)c2C)CC1	-13.4%	-8.1%
CCCCN(C)CC(O)Cn1cc(/C=C/C(=O)c2ccc(Br)cc2)c2ccccc21 (centres undefined)	-5.4%	-18.0%
Cc1nc2cc(-c3ccc(Cl)cc3)nn2c(C)c1CCC(=O)NCc1ccco1	i	-20.3%
O=C(N/N=C/c1cccc([N+](=O)[O-])c1)c1ccc2nc[nH]c2c1	-2.3%	5.8%
C/C(=N\NC(=O)c1c(Br)c(C)nn1C)c1cccc(NC(=O)C2CCC2)c1	-15.1%	-5.1%

Hits appear at their usual frequency. Share with any hit: about 0.87%.
